Methyltransferases = Primary Screen for Target Class Profiling of Small Molecule Inhibitors of Methyltransferases; purified enzyme, MTase-Glo SAH luminescence; hits give low values; calls only at 40 µM; actives 3.9% (n = 25,000); AID 1745853, 2022; active = -50% or lower on at least one of six enzymes; inconclusive = the cases between; inactive = as a rule above -30% on all six;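 note: enzymes were COMT GAMT GNMT HNMT NNMT and PNMT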
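Each enzyme was assayed with SAM and its substrate. SAH formation detected by MTase-Glo luminescence; single-point 40 uM screen[…].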
Calls only; i = inactive; ? = inconclusive; + = active, no number. % is set by controls: 0 for no effect and ±100 for the full control effect. Not all compounds are listed; count on the stated rates, not on these rows.

SMILES	Methyltransferases
COc1cc(O)c2c(c1)/C=C/C[C@@H](O)[C@@H](O)C(=O)CCC[C@H](C)OC2=O	?
Cc1ccc(NC(=O)N2Cc3ccccc3-n3cccc3C2c2ccc(F)cc2)cc1 (centres undefined)	i
COc1ccccc1CC(=O)N1CCN(C2CCN(C)C2=O)CC1 (centres undefined)	i
CCOc1ccc(C2c3cccn3-c3ccccc3CN2C(=O)Nc2ccc(C)cc2)cc1 (centres undefined)	i
CC1c2cccn2-c2ccccc2CN1C(=O)Nc1ccc(Br)cc1F (centres undefined)	i
NC(N)=NOCC[C@H](N)C(=O)O	i
O=C1CCCN1CC#CCN1CCCC1	i
COc1cccc(CNC(=O)N2Cc3ccccc3-n3cccc3C2c2ccc(OC)c(OC)c2)c1 (centres undefined)	i
CCC1c2cccn2-c2ccccc2CN1C(=O)NCc1ccc(C)cc1 (centres undefined)	i
C[C@]12N[C@H](Cc3ccccc31)c1ccccc12	i
Cc1c(Cl)cccc1S(=O)(=O)Nc1nc(CC(=O)N2CCN(C)CC2)cs1	i
Cc1ccc(C)c(NC(=O)N2Cc3ccccc3-n3cccc3C2c2ccccc2Cl)c1 (centres undefined)	i
OCC1CN(c2ncccn2)CC12CCNCC2 (centres undefined)	i
CC(C)C1c2cccn2-c2ccccc2CN1C(=O)Nc1ccccc1 (centres undefined)	i
CCC1CN2CCC3(C(=O)Nc4cccc(O)c43)C2CC1/C(=C/OC)C(=O)OC (centres undefined)	i
CCOC(=O)c1cccc(NC(=O)N2Cc3ccccc3-n3cccc3C2c2ccc(OC)cc2)c1 (centres undefined)	i
Cn1cccc1C(=O)C(=O)N1C[C@H](c2cc(F)cc(F)c2)[C@@H]2[C@H]1C1CCN2CC1	i
COc1ccccc1NC(=O)N1Cc2ccccc2-n2cccc2C1c1cccc(C)c1 (centres undefined)	i
CN(C)c1cc2c(cc1Sc1nc3c(N)nccc3n1CCNCC(C)(C)C)OCO2	+
CCOCCCNC(=O)N1Cc2ccccc2-n2cccc2C1c1cccs1 (centres undefined)	i
C/C=C(\C)C(=O)OC1C2C3(C)CCC(OC4CC(OC)C(OC5OC(C)C(O)C(OC)C5O)C(C)O4)CC3CCC23OC32CCC(C(C)=O)C2(C)C1OC(=O)/C(C)=C/C (centres undefined)	i

Retrieved by structure from the list above, 4 records:
SMILES	Methyltransferases
COc1ccccc1CC(=O)N1CCN(C2CCN(C)C2=O)CC1 (centres undefined)	i
Cc1ccc(C)c(NC(=O)N2Cc3ccccc3-n3cccc3C2c2ccccc2Cl)c1 (centres undefined)	i
COc1ccccc1NC(=O)N1Cc2ccccc2-n2cccc2C1c1cccc(C)c1 (centres undefined)	i
NC(N)=NOCC[C@H](N)C(=O)O	i

Not a retest: entries from further up.
SMILES	Methyltransferases
CCOC(=O)c1cccc(NC(=O)N2Cc3ccccc3-n3cccc3C2c2ccc(OC)cc2)c1 (centres undefined)	i
Cn1cccc1C(=O)C(=O)N1C[C@H](c2cc(F)cc(F)c2)[C@@H]2[C@H]1C1CCN2CC1	i
COc1ccccc1NC(=O)N1Cc2ccccc2-n2cccc2C1c1cccc(C)c1 (centres undefined)	i
CN(C)c1cc2c(cc1Sc1nc3c(N)nccc3n1CCNCC(C)(C)C)OCO2	+
CCOCCCNC(=O)N1Cc2ccccc2-n2cccc2C1c1cccs1 (centres undefined)	i
C/C=C(\C)C(=O)OC1C2C3(C)CCC(OC4CC(OC)C(OC5OC(C)C(O)C(OC)C5O)C(C)O4)CC3CCC23OC32CCC(C(C)=O)C2(C)C1OC(=O)/C(C)=C/C (centres undefined)	i
